Marburg entry inh: qHTS for inhibitors of binding or entry into cells for Marburg Virus; AID 540276, 2011; Potency, µM (doses to about 37.8 µM), inactives show at the top dose activity change, negative = inhibition, hits mostly inhibitors; Marburg virus pseudotyped entry inhibition, cell reporter; control for the full effect not named in the record; about a third of the inactives were read at about 46 µM; 1.8% of 300,000 active; active = well fitted inhibition curve with a large enough effect; inconclusive = small, poorly fitted or top-dose-only effect, or effect the other way; inactive = flat fitted curve, though single readings scatter; tested in HEK293 cells; about a fifth of its hits are not listed in these tables; also: % is scaled to controls: 0 for no effect and ±100 for the full control effect; luciferase read-out
StopGo reporter: High Throughput Screening for Foot and Mouth Disease Virus Antivirals | human cells with a luciferase reporter of 2A StopGo recoding; control for the full effect not named in the record | Potency, µM (titrated, usually from 57.9 µM), inactives show at the top dose signal change, negative = less light | 1.2% of 410,000 active | AID 1159524, 2015; active = well fitted falling curve with a large enough effect; inconclusive = small, poorly fitted or top-dose-only effect; inactive = no such curve, though single readings can be large or run the other way; tested in HEK293T cells; also: % is scaled to controls: 0 for no effect and ±100 for the full control effect; nearly all actives have a fitted effect of over 45% in size; luciferase light after 4 h
SARS PLpro yeast: qHTS of Yeast-based Assay for SARS-CoV PLP | S. cerevisiae expressing SARS-CoV PLpro, growth rescue; control for the full effect not named in the record | Potency, µM (top dose mostly 32.9 µM), without a hit: at the highest dose activity, positive = growth rescue | 0.19% of 330,000 active | AID 485353, 2010; also: 0% is about no effect; nearly all actives have a fitted effect of over 55% in size; growth read by luminescence after 48 h
RE007 growth inh: qHTS Assay for Inhibitors of the HIV-1 protein Vpr | S. pombe RE007 Vpr strain, BacTiter-Glo ATP luminescence, 24 h; control for the full effect not named in the record | Potency, µM (doses to about 92.2 µM), for inactives: at the top dose activity change, negative = less growth | 0.21% of 360,000 active | AID 651644, 2012; active = well fitted falling curve with a large enough effect; inconclusive = small, poorly fitted or top-dose-only effect; inactive = no such curve, though single readings can be large or run the other way;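 also: % is scaled to controls: 0 for no effect and ±100 for the full control effect; nearly all actives have a fitted effect of over 50% in size; the assay follows cell death caused by Vpr and the record does not say whether a fall means rescue or toxicity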
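Fission yeast RE007 carrying one integrated HIV-1 vpr copy, seeded at OD 0.01 in PMG+AL medium with 23 nL pinned compound. Grown 24 h at 30 degrees; viability read by BacTiter-Glo luminescence after 5 min.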
Cruzain inh Det: qHTS Assay for Promiscuous and Specific Inhibitors of Cruzain (with detergent). AID 1478, 2009. purified cruzain, Z-FR-AMC fluorescence, 0.01% Triton. 0.43% of 200,000 active. Potency, µM, inactives show max response, negative = inhibition, hits mostly inhibitors; active = well fitted curve in the direction sought with a large enough effect; inconclusive = small, poorly fitted or top-dose-only effect, or another doubt; inactive = no such curve, though single readings can be large; an effect the other way counts as inactive or inconclusive;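 also: plate controls were neutral wells for no effect and buffer without enzyme for full effect; nearly all actives have a fitted effect of over 40% in size; top concentration of the series not given in the record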
Target sequence (P25779 123-467 limits assumed): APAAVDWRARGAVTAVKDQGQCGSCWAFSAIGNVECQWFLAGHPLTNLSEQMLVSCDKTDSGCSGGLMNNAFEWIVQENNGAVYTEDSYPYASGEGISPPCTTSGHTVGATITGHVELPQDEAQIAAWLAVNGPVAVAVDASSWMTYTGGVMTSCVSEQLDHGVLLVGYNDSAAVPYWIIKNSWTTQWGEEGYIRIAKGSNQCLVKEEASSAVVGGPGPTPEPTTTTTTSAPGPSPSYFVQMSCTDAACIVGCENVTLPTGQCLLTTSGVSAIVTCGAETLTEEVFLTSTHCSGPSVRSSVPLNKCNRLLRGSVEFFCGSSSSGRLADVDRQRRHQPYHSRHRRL
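In this qHTS format, compounds are incubated with 1.5 nM cruzain for 15 min at room temperature before 2 uM Z-FR-AMC is added. Release of AMC is followed at 360/450 nm, and progress is taken as the 60 s fluorescence difference.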
Lassa entry inh: qHTS for Inhibitors of binding or entry into cells for Lassa Virus; Lassa virus pseudotype entry inhibition, cell reporter; control for the full effect not named in the record; Potency, µM (highest dose often 37.9 µM), for the others: top-dose activity change, negative = inhibition, most hits filed as inhibitors; 1.2% of 300,000 active; active means well fitted inhibition curve with a large enough effect; inconclusive means small, poorly fitted or top-dose-only effect, or effect the other way; inactive means flat fitted curve, though single readings scatter; tested in HEK293 cells; also: % is scaled to controls: 0 for no effect and ±100 for the full control effect; nearly all actives have a fitted effect of over 50% in size; luciferase read-out
NS1 inh: qHTS Assay for Inhibitors of Influenza NS1 Protein Function | 0.4% of 270,000 active | S. cerevisiae slowed by influenza A NS1, growth recovery by OD600 | Potency, µM (doses to about 46.1 µM), for the others: top-dose activity, positive = more growth; also: actives are rising curves; nearly all actives have a fitted effect of over 50% in size
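Compounds were scored for reversing the slow growth caused by influenza A NS1 in S. cerevisiae, measured by optical density at 600 nm. Assay medium contained 2% galactose at pH 6.0; NS1-free yeast of the same strain were the positive control.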
Cruzain inh noDet: qHTS Assay for Promiscuous and Specific Inhibitors of Cruzain (without detergent); Cruzipain (Trypanosoma cruzi), P25779; purified cruzain, Z-FR-AMC fluorescence, no detergent; Potency, µM, inactives show max response, negative = inhibition, usual class: inhibitors; 2.3% of 200,000 active; active = well fitted curve in the direction sought with a large enough effect; inconclusive = small, poorly fitted or top-dose-only effect, or another doubt; inactive = no such curve, though single readings can be large; an effect the other way counts as inactive or inconclusive;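 also: plate controls were enzyme without inhibitor for no effect and buffer without enzyme for full effect; nearly all actives have a fitted effect of over 40% in size; top concentration of the series not given in the record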
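Purified cruzain at 1.5 nM, pre-incubated 15 min with compound at room temperature in 100 mM sodium acetate pH 5.5, 5 mM DTT, 0.00005% Triton X-100. Reaction started with 2 uM Z-FR-AMC; AMC fluorescence increase over 60 s gives rate.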
* = called active by the depositor; ? = inconclusive; nt = not tested or not shown; [ ] = remark or other dose. Unless noted, calls follow the shape of the dose curve; as a rule, active means well fitted rising curve with a large enough effect; inconclusive means small, poorly fitted or top-dose-only effect; inactive means no such curve, though single readings can be large or run the other way. Potency is read from the fitted curve at half-maximal effect.

Under each structure: StopGo reporter | Lassa entry inh | Cruzain inh noDet | RE007 growth inh | Marburg entry inh | SARS PLpro yeast | Cruzain inh Det | NS1 inh
- O=C(O)C1C2CCC(O2)C1C(=O)Nc1ccc(F)cc1 (stereo not given)
→ -9% | 2% | nt | 0% | -19%[46.1 µM] | 0% | nt | 6%
- CNCCC=C1c2ccccc2C=Cc2ccccc21
→ -17% | nt | -11% | -17%[18.4 µM] | nt | nt | 1.3% | nt
- Cc1ccc(NC(=O)N2CCC3(CC2)Oc2ccccc2C(=O)N3Cc2ccc(F)cc2)cc1
→ 32%[activator] | -29%[46.1 µM] | ? | nt | ? | nt | -5.1% | nt
- CCc1ccccc1NC(=O)CN(Cc1ccccc1)S(=O)(=O)c1ccc2nc(C)sc2c1
→ -23% | 27%[46.1 µM] | 1% | nt | nt | nt | -2.1% | nt
- CCc1nnc(NC(=O)c2ccc(Br)o2)s1
→ 59%[activator] | 35% | nt | 0% | -5% | 3% | nt | -8%
- O=S(=O)(Nc1ccc(O)c(Sc2nc3ccccc3s2)c1)c1ccc(F)cc1
→ ? | 0% | 3% | -2% | 3% | -26% | -9.0% | -28%
- Cn1c(=O)n(C)c2cc(C(N)=O)ccc21
→ 11% | ? | 4% | 3% | 7% | 5% | 1.7% | -2%
- CC(C)N1C(=O)CCC1C(=O)NCCc1ccccc1 (stereo not given)
→ 9% | -1% | -4% | 13% | 13% | 2% | 4.3% | -6%
- CCOC(=O)c1cc2c(=O)n3ccccc3nc2n(Cc2ccco2)c1=NC(=O)c1cccc(Br)c1
→ -4% | 13%[46.1 µM] | -10% | nt | nt | nt | ? | nt
- CC(=O)Oc1ccc2c(C)cc(=O)oc2c1C(=O)c1ccccc1
→ -6% | -8% | -3% | 55% | 16% | -1% | -8.9% | -4%
- Cc1ccc(CNn2cnnc2SCC(=O)NC(C)(C)C)cc1
→ -3% | 0% | -8% | 2% | 21% | -5% | 7.8% | 2%
- O=C(O/N=C1\CCS(=O)(=O)c2sccc21)c1ccc(F)cc1
→ 18% | 7% | nt | 7% | 16% | -1% | nt | nt
- NC(=S)n1[nH]c(-c2ccc([N+](=O)[O-])cc2)c(N=Nc2ccc(Cl)cc2)c1=O
→ ? | ? | nt | -1% | ? | 0% | nt | 2%
- O=C(NCc1cccc(Cl)c1)C1CCCN(c2ncnc3c2nc2n3CCCCC2)C1 (stereo not given)
→ -22% | ? | nt | -10% | ? | -2% | nt | 0%
- NC(=O)CSc1ncnc2c1oc1ccccc12
→ -8% | nt | 5% | 1% | nt | 5% | -1.1% | -8%
- COc1cc(C(=O)OCC(=O)NCc2ccccc2)cc(NC(=O)c2ccco2)c1OC
→ ? | 16% | -12% | -18% | ? | 9% | 0.3% | 1%
- Cn1ccnc1SCC(=O)n1c2c(c3ccccc31)CCCC2
→ -8% | -1% | 1% | -24% | 28% | -26% | -14% | -9%
- COc1cc2c(cc1OC)C(CC(=O)O)N(C(=O)CC1CCCC1)CC2 (stereo not given)
→ -4% | -13%[46.1 µM] | nt | ? | -2%[46.1 µM] | 2% | nt | ?
- Cc1cc(C)c2nc3nc(C)cc(C)c3c(N)c2c1
→ ? | 13µM* | 7% | nt | ? | -4% | -4.0% | -16%
- Cc1ccc(C)c(OCCn2c(CCNC(=O)C3CCCCC3)nc3ccccc32)c1
→ nt | -25%[46.1 µM] | 1% | nt | ? | nt | 1.3µM* | nt
- O=C(NNC1CC(=O)N(c2cccc(Cl)c2)C1=O)c1cccnc1 (stereo not given)
→ -9% | 11% | -2% | -7% | -5% | 1% | 1.7% | 18%
- COc1ccc(NCc2cccn2-c2nnc(N3CCOCC3)s2)c(OC)c1
→ 5% | 21%[46.1 µM] | -7% | nt | nt | nt | -1.7% | nt
- Clc1ccc(Cc2nc(-c3ccncc3)no2)cc1
→ -2% | nt | nt | -4% | nt | -2% | nt | 5%
- CCOC(=O)c1c(-c2ccccc2)oc2ccc(O)c(CN(C)C)c12
→ 0% | -29% | -1% | -1% | ? | -6% | -4.3% | -9%
- Cc1cc(C)c2oc(C(=O)Nc3ccc(S(=O)(=O)Nc4ncccn4)cc3)cc(=O)c2c1
→ -20% | 7%[46.1 µM] | ? | nt | 18%[46.1 µM] | nt | -3.6% | nt
- COc1ccc(S(=O)(=O)N(CC(=O)N2CCN(C)CC2)c2ccc(C)cc2)cc1Br
→ -4% | -19% | nt | -7% | -22% | -4% | nt | -4%
- O=S(=O)([N-]c1nc2ccccc2nc1-[n+]1ccccc1)c1ccc(F)cc1
→ 6% | nt | nt | 9% | -6%[46.1 µM] | 2% | nt | nt
- O=C(COC(=O)c1cccc(C(=O)OCC(=O)NCc2ccc(F)cc2)n1)NCc1ccc(F)cc1
→ -16% | -1% | -13% | -13% | 16% | -8% | -1.8% | 3%
- Cc1c(C(=O)N2CCN(c3ccccc3)CC2)sc2ncnc(N3CCN(c4ccccn4)CC3)c12
→ ? | 5% | nt | 12% | 2%[46.1 µM] | -14% | nt | 12%
- Cc1c(C)c(C)c(C(=O)c2ccc(NC(=O)c3ccccc3C(=O)O)cc2)c(C)c1C
→ -20% | 2% | nt | 15% | 16% | -5% | nt | -31%
- Cc1ccc(Cn2ccsc2=NC(=O)COC(=O)c2ccc(NC(=O)CC#N)cc2)cc1
→ 25µM* | ? | nt | 0% | ? | 0% | nt | nt
- COC(=O)C(C)NC(=O)COc1ccc2ccccc2c1 (stereo not given)
→ -2% | 22% | nt | -14% | 24%[46.1 µM] | 2% | nt | nt
- Nc1ncncc1-c1ccc([N+](=O)[O-])cc1
→ 1% | ? | -6% | -9% | -1% | 1% | -2.8% | -23%
- CC1(C)N=C(c2ccccc2)C(=O)N1
→ -19% | -6% | 3% | 0% | 2% | -4% | 5.4% | -11%
- CC(C)[C@H](NC(=O)c1ccccc1Cl)C(=O)NC1CCCCCC1
→ 35%[activator] | nt | nt | 4% | -1%[46.1 µM] | 1% | nt | nt
- COc1ccc(OC)c(NC(=S)NCc2ccccc2OC)c1
→ 8% | 12%[46.1 µM] | nt | -5% | -1%[46.1 µM] | 0% | nt | -10%
- Nc1nonc1-n1nnc(C(=O)N/N=C/c2cccc(O)c2)c1CN1CCCC1
→ -11% | -6%[46.1 µM] | nt | 12% | 3%[46.1 µM] | -4% | nt | -2%
- CCOC(=O)N1CCN(S(=O)(=O)N2CCCC(C(=O)NCc3cc(Br)ccc3OC)C2)CC1 (stereo not given)
→ ? | -8%[46.1 µM] | -7% | 2% | nt | nt | 0.7% | nt
- COc1cc(CN2CCNC(=O)C2CC(=O)O)cc(OC)c1 (stereo not given)
→ 7% | ? | nt | 1% | 26%[46.1 µM] | 0% | nt | 2%
- Cc1ccc(NC(=O)c2ccc(=O)[nH]n2)cc1C
→ 38%[activator] | 24%[46.1 µM] | nt | -5% | ? | 12% | nt | 3%
- Cc1ccc(NC(=S)/C(=C(\[O-])c2ccc(Cl)s2)[n+]2cccc(CO)c2)cc1C
→ 8% | 15% | nt | -11% | ? | -1% | nt | nt
- O=C(O)c1ccc(NC2CC(=O)N(Cc3ccccc3)C2=O)cc1 (stereo not given)
→ 6% | nt | nt | -4% | nt | 0% | nt | 0%
- Cc1cc(NC(=O)CSCC(=O)N(c2cccc(Cl)c2)C(C(=O)NC2CCCCC2)c2ccc(O)c(O)c2)no1 (stereo not given)
→ 25% | -25% | 4% | -24% | -6% | -18% | -4.3% | 5%
- O=C(NCCCNC(=O)c1cnccn1)c1ccc(Br)cc1
→ 22% | 12%[46.1 µM] | nt | 8% | ? | 2% | nt | 1%
- CN(C(=O)c1cccc(S(=O)(=O)NCc2ccccc2)c1)C1CCCCC1
→ -11% | -12% | nt | 0% | -12% | -1% | nt | nt
- CC(=O)c1cccc(NC(=O)c2cc3c(s2)-c2c(C)cccc2OC3)c1
→ ? | nt | -6% | nt | 7%[46.1 µM] | nt | -3.1% | nt
- COc1ccc(OC)c(-c2csc(NC(=O)CN3C(=O)NC4(CCCC4)C3=O)n2)c1
→ ? | ? | nt | 15% | 1%[46.1 µM] | -2% | nt | nt
- CCN(C(=O)COC(=O)c1nc2nc(C)cc(C)n2n1)C1CCS(=O)(=O)C1 (stereo not given)
→ -17% | nt | nt | -4% | nt | 2% | nt | -2%
- CCC(=O)N1CCN(c2nc3ccc(Br)cc3s2)CC1
→ -8% | nt | nt | -19% | nt | -3% | nt | -10%
- CCC(C)[C@H](NC(=O)Nc1ccccc1F)C(=O)O (stereo not given in full)
→ -15% | nt | nt | -7% | nt | 0% | nt | 2%
- CCc1ccc2[nH]c(=O)c(Cc3ccccc3)c(O)c2c1
→ -3% | nt | nt | -14% | nt | -4% | nt | 16%
- COc1ccc(CNC(=O)Cc2c[nH]c3ccccc23)cc1OC
→ -29% | nt | nt | -1% | nt | -1% | nt | 9%
- Cc1nn(C(C)C)c(C)c1CN1CCCC(C(=O)c2cccc(OC(C)C)c2)C1 (stereo not given)
→ ? | ? | nt | -15% | 13µM* | -2% | nt | 3%
- CCN(C(=O)CSc1nnc(CNc2cccc(OC)c2)n1C1CCCCC1)C1CCS(=O)(=O)C1 (stereo not given)
→ 3% | -9% | nt | -14% | 11% | 1% | nt | ?
- Cc1ccc(C)c(NC(=O)CN(C)C(=O)COc2ccc3ccccc3c2)c1
→ -13% | -7% | nt | 3% | 5% | 0% | nt | nt
- CCOC(=O)c1sc(NC(=O)CSc2n[nH]c(CC(C)C)n2)nc1C
→ -6% | ? | -10% | -2% | -2% | 9% | -7.1% | -1%
- COCc1cc(CN2CCCC(CNC(=O)c3ccc(F)cc3)C2)ccc1OC (stereo not given)
→ 28% | 19%[46.1 µM] | nt | -12% | ? | -1% | nt | -5%
- CCOc1ccc(C2c3[nH]c4ccccc4c3CCN2Cc2cn(CC)nc2C)cc1 (stereo not given)
→ -11% | nt | nt | 0% | nt | 0% | nt | 1%
